# Assay outcomes as filed in PubChem.
# EPAC1 ag val – Validation qHTS for agonist of cAMP-regulated guanine nucleotide exchange factor 3 (EPAC1); Rap guanine nucleotide exchange factor 3 (Homo sapiens), O95398; EPAC1 Rap1b BODIPY-GDP exchange, fluorescence; Potency, µM, inactives show max response, positive = active, hits mostly activators; 16,000 compounds, 1% hits; active means well fitted activation curve with a large enough effect; inconclusive means small, poorly fitted or top-dose-only effect; inactive means no such curve, though single readings can be large or run the other way;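 further: nearly all actives have a fitted effect of over 70% in size; series mostly up to about 76 or 150 µM; scaled to a cAMP control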
# Target sequence (O95398 whole entry, looked up): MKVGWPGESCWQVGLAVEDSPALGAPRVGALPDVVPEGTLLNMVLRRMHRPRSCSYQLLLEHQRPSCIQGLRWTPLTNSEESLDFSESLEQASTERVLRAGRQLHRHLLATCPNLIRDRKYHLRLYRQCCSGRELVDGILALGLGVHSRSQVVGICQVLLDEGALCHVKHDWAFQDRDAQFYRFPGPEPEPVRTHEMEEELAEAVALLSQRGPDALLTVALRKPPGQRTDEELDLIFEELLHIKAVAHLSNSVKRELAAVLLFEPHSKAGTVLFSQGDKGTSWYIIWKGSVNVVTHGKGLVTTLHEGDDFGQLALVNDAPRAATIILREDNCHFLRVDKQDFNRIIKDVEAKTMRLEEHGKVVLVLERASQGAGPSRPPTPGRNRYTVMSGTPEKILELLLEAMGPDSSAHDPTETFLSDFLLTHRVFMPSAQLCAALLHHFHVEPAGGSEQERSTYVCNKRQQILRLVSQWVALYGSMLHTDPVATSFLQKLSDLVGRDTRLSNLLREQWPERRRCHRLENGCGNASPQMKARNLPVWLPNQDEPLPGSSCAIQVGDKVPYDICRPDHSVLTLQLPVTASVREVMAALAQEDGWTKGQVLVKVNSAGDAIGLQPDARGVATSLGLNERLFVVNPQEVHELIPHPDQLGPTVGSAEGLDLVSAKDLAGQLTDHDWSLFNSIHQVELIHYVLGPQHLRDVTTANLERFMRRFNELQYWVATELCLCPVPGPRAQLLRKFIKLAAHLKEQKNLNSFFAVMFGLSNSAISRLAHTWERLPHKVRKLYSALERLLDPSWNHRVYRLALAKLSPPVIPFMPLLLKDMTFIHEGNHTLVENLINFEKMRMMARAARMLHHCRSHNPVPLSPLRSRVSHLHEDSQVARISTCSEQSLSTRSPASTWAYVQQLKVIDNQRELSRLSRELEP
# * marks the source's active call; other numbers are inactive results; u = inconclusive; & = joins results of further samples; [ ] = another dose, or the depositor's remark. On the % scale 0 is the no-effect control and ±100 the full control effect; potency means the concentration at half of the fitted maximal effect. A portion of the library, so the mix of outcomes need not match the whole.
EPAC1 ag val	Molecule
-59%[inhibitor]	CC(=O)NC1C(OC2OC(CC(O)C3OC([N+]4=CCC(=O)NC4=O)C(O)C3O)C(O)C(O)C2NC(=O)/C=C/CCCCCCCCC(C)C)OC(CO)C(O)C1O (stereo not given)
-10%	CC1=C(C(=O)O)N2C(=O)[C@@H](NC(=O)[C@H](N)c3ccccc3)[C@H]2SC1
-7%	CC(=O)c1ccc(-c2cc(F)cc3c2OC(CNC(=O)c2ccc[n+]([O-])c2)C3)s1 (stereo not given)
30%	Cc1cccc(CNc2cc(-c3ccc(N(C)C)cc3)ncn2)c1
-8%	Cc1c[nH]c(=O)n(CCCN2CCN(c3ccccc3OCC(F)(F)F)CC2)c1=O
-58%[inhibitor]	CCNc1ncc2nc(-c3ccccc3)c(=O)n(C[C@H]3CCCO3)c2n1
7%	COc1ccccc1CCn1c(=O)c(-c2ccc(F)cc2)nc2cncnc21
u	CN(C)C(=O)c1ccc(-c2ccc3ncnc(NCc4ccccc4)c3c2)cc1
7%	CCOC(=O)C1=C(C)NC(=S)NC1c1cccc(O)c1 (stereo not given)
20%	COc1ccc(C(=O)C[n+]2cccc(Br)c2)cc1
-5%	COc1ccccc1CNc1ncncc1-c1ccccc1C(F)(F)F
15%	CC(=O)[C@]1(O)CCC2C3CC(C)C4=CC(=O)C=CC4(C)[C@@]3(F)C(O)C[C@]21C (stereo not given in full)
-67%[inhibitor]	CN(C)C(=O)c1ccc(-c2nc(Nc3ccccc3)c3ccccc3n2)cc1
17%	CC(=O)OC1CC2C(C)(C)C(O)CC[C@@]2(C)C2CC[C@@]3(C)C(c4ccoc4)OC(=O)C4OC43[C@]12C (stereo not given in full)
1%	O=C(COc1ccc(Cl)cc1)OCCNC12CC3CC(CC(C3)C1)C2
u	CCCCCC(CC(=O)O)C(=O)O (stereo not given)
u	CN1CCC(=O)N([C@H](CO)Cc2ccccc2)CC1
-81%[inhibitor]	CCCCCOc1ccc(C2SC(=O)NC2=O)cc1OCC (stereo not given)
-7%	CCC1(C2CCN(C(=O)c3cc(F)ccc3F)CC2)NC(=O)N(CCc2scnc2C)C1=O (stereo not given)
8%	CC1=C(C(=O)OCc2cc(C)on2)N2C(=O)[C@@H](NC(=O)OCc3cc(C)on3)[C@H]2SC1
-84%[inhibitor]	CN1CCN(c2ncc3nc(CCc4ccccc4)c(=O)n(CCC#N)c3n2)CC1
-73%[inhibitor]	COc1ccc(Oc2ncc3ncc(=O)n(CCc4ccccc4)c3n2)cc1
-5%	COc1cc(=O)n2c(c1C(=O)N(C)Cc1ccsc1)CCN(Cc1c(C)nc3sccn13)CC2
-73%[inhibitor]	COc1ccccc1CN1CCC2(CC1)CCN(C(=O)c1cc(C(F)(F)F)cc(C(F)(F)F)c1)CC2
4%	CCC1CN(CCNC(=O)c2cc3ccccc3oc2=O)Cc2cc(OC)ccc2O1 (stereo not given)
-13%	Cc1nc2cnc(Oc3cccc(Cl)c3)nc2n(C2CC2)c1=O
7%	O=C(NCc1nnc2n1CCN(Cc1ccc(C(F)(F)F)cc1)CC2)c1ccccn1
-35%[inhibitor]	N#Cc1cccc(-c2cncnc2NCc2cccs2)c1
-37%	COc1ccc(SCCN2CC[C@@H](C(C)(C)C)CCC2=O)cc1
5%&-7%	CC(C)[C@H](NC(=O)OCc1ccccc1)C(=O)N[C@H](C=O)Cc1ccccc1
-10%	COCCn1c(=O)c(-c2ccc(F)cc2)nc2cnc(N(C)C)nc21
15%&-45%&6%&-20%	CC(C)NC[C@@H](O)COc1cccc2ccccc12
14%	CCCC[n+]1c(C)ccc2ccccc21
3%	COc1ccccc1C(=O)N1CCCC(c2nc(SCCN3CCOCC3)ncc2C)C1 (stereo not given)
-2%	COc1ccc(F)c(CN2CCOc3ccc(CN4CCC(O)(c5cccnc5)CC4)cc3C2)c1
-51%[inhibitor]	CN(C)c1ncc2ncc(=O)n(Cc3ccc(F)cc3)c2n1
2%&-20%	CN(C)CCCN1c2ccccc2Sc2ccc(C(F)(F)F)cc21
-17%	CN(C)CCc1c[nH]c2ccc(C[C@H]3COC(=O)N3)cc12
u	NCC1CCC(C(=O)O)CC1 (stereo not given)
u	COc1ccccc1N1CCN(C[C@@H](O)COc2cccc3ccccc23)CC1
0%	O=C(NCc1nnc2n1CCN(C(=O)/C=C/c1ccccc1)CC2)c1cccc(F)c1
u	O=C(C[N+]12CN3CN(CN(C3)C1)C2)c1ccc(I)cc1
-12%	Nc1[nH]nc2nc3ccccc3nc12
2%	COc1ccccc1C(=O)N[C@@H]1c2ccccc2C2(CCN(C(=O)c3ccnn3C)CC2)[C@H]1OC
-16%	O=C(O)c1cc(N(Cc2ccccc2O)Cc2cc(O)ccc2O)ccc1O
6%	COc1ccc(-n2c(=O)c(-c3cccc(F)c3)nc3cncnc32)cc1
-2%	c1cncc(OC2CCN(Cc3ccc4c(c3)CN(Cc3ccc5c(c3)OCO5)CCO4)CC2)c1
-5%	COC(=O)C1CCN(Cc2ccc3c(c2)CN(C(=O)c2cc(-c4ccc(C)o4)[nH]n2)CCO3)CC1
-1%&-15%&4%	N[C@@H](CC(=O)O)C(=O)O
-63%[inhibitor]	COc1ccc(CNc2ncnc3ccc(-c4cccnc4)cc23)c(OC)c1
-127%[inhibitor]	COc1ccc(NC(=O)N2CC[C@@]3(CCCN(C(=O)c4cc(C(F)(F)F)cc(C(F)(F)F)c4)C3)C2)cc1
u	Cn1cc(/C=C/c2ccc3ccccc3n2)c2ccccc21
-17%	O=C(OC1C[C@H]2CC[C@@H](C1)[N+]21CCCC1)C(O)(c1ccccc1)c1ccccc1 (stereo not given in full)
-8%	COc1ccccc1CN1CC2(CCN(S(C)(=O)=O)CC2)C1
-2%	OC1(c2cccnc2)CCN(Cc2ccc3c(c2)CN(Cc2ccc(F)c(F)c2)CCO3)CC1
5%	Cc1cnc(CNc2ncnc3ccc(-c4ccccc4Cl)cc23)cn1
-24%	C[C@H]1C=C2C=C[C@H](C)[C@H](CC[C@@H]3C[C@@H](O)CC(=O)O3)[C@H]2[C@@H](OC(=O)[C@@H](C)CCO)C1
9%	O=C(NC1CCC(=O)N(CCOc2ccccc2)CC1)OCc1ccccc1 (stereo not given)
-13%	COc1cc(OC)c(OC)cc1CN1CCC(n2cc(C(=O)N3CCCCC3)nn2)CC1
15%	CC(=O)N/N=C/c1ccc([N+](=O)[O-])o1

# Other structures follow:
EPAC1 ag val	Molecule
2%	Clc1ccc[n+](CCCCC[n+]2cccc(Cl)c2)c1
-1%	O=C(c1ccc2c(c1)OCO2)N1CCOc2ccc(CN3CCC(Oc4cccnc4)CC3)cc2C1
-15%	COC(=O)c1ccc(CN2CCOc3ccc(C(O)c4cccnc4)cc3C2)cc1 (stereo not given)
8%	Cn1cccc1C(=O)N1CCC2(CC1)CN(Cc1ccc(C#N)cc1)C2
6%	COc1cc2[nH]c(C)c(CCN3CCN(c4ccccc4)CC3)c2cc1OC
6%&17%	Nc1ncnc2c1ncn2C1OC(CO)C(O)C1O (stereo not given)
9%	CCC1CN(CCNC(=O)c2scc3c2OCCO3)Cc2cc(OC)ccc2O1 (stereo not given)
-25%	O=c1cnc2cnc(Nc3ccccc3)nc2n1Cc1cccs1
0%	COc1ccc(-n2c(=O)c(-c3ccc(F)cc3)nc3cnc(OC)nc32)cc1
-21%	O=S(=O)(O)c1ccc(Nc2ncnc3c2ncn3[C@@H]2O[C@H](CO)[C@@H](O)[C@H]2O)cc1
-12%	Cc1cnc(-n2ncc(C(=O)NCC(C)(C)N3CCOCC3)c2C(C)C)nc1-c1ccc(F)cc1
-11%	Cc1cc(C(=O)Nc2ccccc2-c2nc(CNC(=O)c3ccc(F)cc3F)c(C)o2)c(C)o1
-3%&10%	COc1cc([C@@H]2c3cc4c(cc3C(O[C@@H]3O[C@@H]5CO[C@@H](C)O[C@H]5[C@H](O)[C@H]3O)C3COC(=O)[C@@H]32)OCO4)cc(OC)c1OP(=O)(O)O (stereo not given in full)
5%	CCC(C)C(NC)C(=O)O (stereo not given)
-8%	COc1ccc(CNc2ncnc3ccc(-c4ccc(N(C)C)cc4)cc23)c(OC)c1
-12%&4%	COc1ccc2c(c1)OCC(Cc1ccc(OC)c(OC)c1)C2O (stereo not given)
3%	COc1ccccc1C1CN(Cc2cnn(C)c2)Cc2ccccc2O1 (stereo not given)
-3%	COc1cccc(Nc2ncc3nc(C)c(=O)n(-c4ccccc4)c3n2)c1
8%	Cc1cccc(CNCCn2cc(C(=O)Nc3ccccc3)nn2)c1
9%	O=C(/C=C/c1ccc(O)cc1)c1c(O)cc(O)cc1O

# Six entries already listed, sorted by the value under EPAC1 ag val, lowest first:
Structure,EPAC1 ag val
O=c1cnc2cnc(Nc3ccccc3)nc2n1Cc1cccs1,-25%
COC(=O)c1ccc(CN2CCOc3ccc(C(O)c4cccnc4)cc3C2)cc1 (stereo not given),-15%
Cc1cc(C(=O)Nc2ccccc2-c2nc(CNC(=O)c3ccc(F)cc3F)c(C)o2)c(C)o1,-11%
COc1cccc(Nc2ncc3nc(C)c(=O)n(-c4ccccc4)c3n2)c1,-3%
O=C(c1ccc2c(c1)OCO2)N1CCOc2ccc(CN3CCC(Oc4cccnc4)CC3)cc2C1,-1%
COc1cc2[nH]c(C)c(CCN3CCN(c4ccccc4)CC3)c2cc1OC,6%

# The list goes on.
EPAC1 ag val	Molecule
-10%&2%&-2%	N[C@H](C(=O)O)c1cccc(O)c1
-49%[inhibitor]	CCCCC(CC)CN=C(N)NC(N)=NCCCCCCN=C(N)NC(N)=NCC(CC)CCCC (stereo not given)
-90%[inhibitor]	Cc1ccccc1-c1nccc(Nc2ccc(F)cc2)n1
-70%[inhibitor]	CC(C)CN1CC[C@@]2(CCCN(S(=O)(=O)c3ccccc3)C2)C1
-41%[inhibitor]	CNc1ccnc(-c2ccccc2C)n1
26%	O=C1C[C@H]2C=CCc3cccc(c32)CN1Cc1ccc(F)cc1
-17%	N[C@H](C(=O)O)[C@H](OCc1ccccc1)C(=O)O
5%&-2%	CC(C(=O)O)c1ccc(-c2ccccc2)c(F)c1 (stereo not given)
-17%	O=C(c1ccc2c(c1)OCO2)N(Cc1cc2cc3c(cc2nc1N1CCOCC1)CCC3)CC1CCCO1 (stereo not given)
12%&9%&-13%&-7%	CN1CCN(CC(=O)N2c3ccccc3C(=O)Nc3cccnc32)CC1
-8%&9%	N=C(N)S/C=C\C(=O)O
8%	CC(CCc1ccc(O)cc1)N1CCOc2c(O)cc(-c3nc4ccccc4s3)cc2C1 (stereo not given)
3%	CC(C)C[C@H](NC(=O)[C@H](CCCCN)NC(=O)[C@H](CCCNC(=N)N)NC(=O)[C@H](C)NC(=O)[C@H](CO)NC(=O)[C@H](CCCCN)NC(=O)[C@H](CCCNC(=N)N)NC(=O)[C@H](C)NC(=O)CNC(=O)[C@@H](NC(=O)[C@H](Cc1ccccc1)NC(=O)CNC(=O)CNC(=O)[C@@H](N)Cc1ccccc1)[C@H](C)O)C(=O)N[C@@H](C)C(=O)N[C@@H](CC(N)=O)C(=O)N[C@@H](CCC(N)=O)C(=O)O
-8%	COc1ccc(-n2c(CNC(=O)c3ccc(OC)cc3OC)nnc2SC)cc1
-33%[inhibitor]	O=c1c(-c2cccs2)nc2cncnc2n1Cc1ccc(F)cc1
-8%	CCC(C(=O)NC(=O)NC(C)=O)c1ccccc1 (stereo not given)
-23%&10%	C[C@@](Cc1ccc(O)c(O)c1)(NN)C(=O)O
-2%	COc1cccc(C(=O)N(Cc2cc3ccc(C)cc3nc2N(C)C)C2CC2)c1OC
0%&-16%&-66%	C[N+](C)(C)CCOC(N)=O
20%	c1cncc(CNc2ccnc(-c3cccnc3)n2)c1

# Fetched by structure from the entries so far:
EPAC1 ag val	Molecule
12%&9%&-13%&-7%	CN1CCN(CC(=O)N2c3ccccc3C(=O)Nc3cccnc32)CC1
-17%	O=C(c1ccc2c(c1)OCO2)N(Cc1cc2cc3c(cc2nc1N1CCOCC1)CCC3)CC1CCCO1 (stereo not given)

# Next section
EPAC1 ag val	Molecule
10%	O=C(CN1Cc2ccccc2OC(c2ccsc2)C1)NCC1OCCc2ccccc21 (stereo not given)
-6%	Cc1c2oc3c(C)ccc(C(=O)NC4C(=O)NC(C(C)C)C(=O)N5CCCC5C(=O)N(C)CC(=O)N(C)C(C(C)C)C(=O)OC4C)c3nc-2c(C(=O)NC2C(=O)NC(C(C)C)C(=O)N3CCCC3C(=O)N(C)CC(=O)N(C)C(C(C)C)C(=O)OC2C)c(N)c1=O (stereo not given)
6%	Cc1cnc(CNc2nc(-c3ccccc3Cl)nc3ccccc23)cn1
u	CN1CCN(c2ncc3nc(-c4cccs4)c(=O)n(-c4ccccc4)c3n2)CC1
-15%&-12%	N[C@H](Cc1cnc[nH]1)C(=O)O
3%&1%&-10%	CC(C)NCC(O)c1ccc(NS(C)(=O)=O)cc1 (stereo not given)
3%	CN1Cc2c(C(=O)OC(C)(C)C)ncn2-c2ccsc2C1=O
-62%[inhibitor]	c1ccc(Nc2nc(-c3cccnc3)nc3ccccc23)cc1
5%	CC(Oc1ccccc1)C(=O)NCC1Cc2cc(F)cc(-c3ccccn3)c2O1 (stereo not given)
-8%	COc1cc(=O)n2c(c1C(=O)NCc1nonc1C)CCN(Cc1c[nH]c3ccccc13)CC2
-81%[inhibitor]	Cc1noc(C)c1C(=O)N1CCC2(CC1)CCN(c1ncccn1)CC2
-14%	COc1ccc2oc(-c3ccc(O)cc3)cc(=O)c2c1
-112%[inhibitor]	CC(=O)Oc1c2c(c3c(c1CC=C(C)C)O[C@@]14C(=CC5CC1C(C)(C)OC4(C/C=C(\C)C(=O)O)C5=O)C3=O)OC(C)(CCC=C(C)C)C=C2 (stereo not given in full)
-25%	O=C(O)C[C@H]1c2ccc(C(F)(F)F)cc2S(=O)(=O)N1Cc1ccccc1
18%	CC(=O)OCC1=C(C(=O)O)N2C(=O)C(NC(=O)CSc3ccncc3)[C@@H]2SC1 (stereo not given in full)
-5%	CC(c1cc2ccccc2s1)N(O)C(N)=O (stereo not given)
-7%	O=c1cc(-c2ccccc2)oc2cc(O)c(O)cc12
24%	Cc1ccnc2c(N)cccc12
12%	O=C(/C=C/c1ccccc1)c1cccs1
